Bm FixLJ act: increases Burkholderia fixLJ two-component signaling; B. multivorans fixK-promoter GFP reporter, 18 h; active compounds read high; z-score (concentration not given with the values); actives 0.3% (n = 29,000); AID 1918990;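 active means replicate mean overnight rise in green fluorescent reporter signal, 3 or more SD over negative controls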;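 further: score is relative to vehicle wells of the plate; 300 nL library stock went into each well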
* = called active by the depositor; & = joins results of further samples.

SMILES,Bm FixLJ act
CC(C)OCCCNC(=O)CCCn1c(SCC(=O)c2ccc(F)cc2)nc2c(sc3ccccc32)c1=O,-0.14
COc1cccc(N2CCN(C(=O)CCc3c(C)nc4c(c3C)c(=O)n(C)c(=O)n4C)CC2)c1,0.13
CCCN(CCC)CCNC(=O)c1cc(-c2ccc(Br)s2)nc2ccccc12,-0.72
CCOC(=O)C1CCCN(C(=O)c2ccc3c(c2)N(Cc2ccccc2)C(=O)c2ccccc2S3=O)C1 (stereo not drawn),0.23
CCCn1c(CCC(=O)Nc2cc(Cl)c(OC)cc2OC)nc2cccnc21,-1
CCCC(C)NC(=O)N(C)Cc1cn[nH]c1-c1ccc(F)cc1 (stereo not drawn),-0.28
CC(C)c1ccc(NC(=O)C(Cc2ccccc2)n2cccc2)cc1 (stereo not drawn),0.48
Cc1ccc(C(=O)Nc2c(C(=O)NCc3ccc(Cl)cc3)sc3nc(C)cc(C)c23)cc1,-2.1
Cc1nnc(N2CCN(c3cnn(-c4ccccc4)c(=O)c3Cl)CC2)o1,-3
COC(=O)c1ccc(Cn2c(SCc3ccccc3)nc3ccncc32)cc1,-1.2
Cc1ccccc1OCC(=O)N(Cc1ccc(C(C)C)cc1)C1CCS(=O)(=O)C1 (stereo not drawn),-2.8
CNC(=O)c1cc(S(=O)(=O)NC(C)c2nc(C(C)C)no2)cs1 (stereo not drawn),-1.1
Fc1ccc(-c2nc(-c3cccs3)c(-c3cccs3)[nH]2)cc1,-1.2
CCOC(=O)[C@H](CCc1ccccc1)N[C@@H](C)C(=O)N1[C@H](C(=O)O)C[C@@H]2CCC[C@@H]21,-1.2&-2
CCN1CCC(N2CCC3(CCC(=O)N(CCc4cnc[nH]4)C3)CC2)CC1,-0.72
CCCC1CN(C(=O)Nc2cccc(OC)c2)CC1NC(C)=O (stereo not drawn),-1.8
Cc1ccc(CCNC(=O)c2oc(=O)c3ccccc3c2-c2ccc(C)cc2)cc1,1.9
CCOC(=O)Cn1cnc2c(cnn2-c2ccc(C)c(C)c2)c1=O,-0.89
CCOC(=O)c1c(C)n(S(=O)(=O)c2ccc(C)cc2)c2ccc(NS(=O)(=O)c3ccc(C)cc3)cc12,0.42
CC(C)CS(=O)(=O)NCc1nncn1CCc1ccccc1,-0.39
COC(=O)C1=CCCN(C)C1,-0.34
CNC(=O)c1cc(S(=O)(=O)NCc2csc(N)n2)ccc1OC,-1.3
CCN1C(=O)c2ccccc2S(=O)(=O)c2ccc(C(=O)NCc3ccc(F)cc3)cc21,-1.1
COc1cc(C(=O)NC(C)c2nncn2C2CCCC2)ccc1O (stereo not drawn),-0.18
Cc1ccn2c(=O)c(C(=O)NCc3ccccc3Cl)c(O)nc2c1,0.29
CC(C)c1ccc2occ(CC(=O)N(Cc3ccc(F)cc3)C3CCS(=O)(=O)C3)c2c1 (stereo not drawn),0.52
Cc1ccc(-c2nc(S(=O)(=O)c3ccc(C)cc3)c(SCC(=O)Nc3ccc(F)cc3)o2)cc1,-1
O=C(CSc1nc(-c2ccccc2)[nH]c1-c1ccccc1)Nc1ccc2c(c1)OCCO2,-0.98
CCS(=O)(=O)c1oc(-c2ccc(F)cc2)nc1S(=O)(=O)c1ccccc1,-4
CCN(CC)c1ccc(-n2nc3cc(C)c(NC(=O)c4ccccc4F)cc3n2)cc1,-0.59
O=C(c1ccc2c(c1)N(Cc1ccc(F)cc1)C(=O)c1ccccc1S2(=O)=O)N1CCCCC1,0.53
Cc1nc2nc(NC(=O)C(C)(C)C)[nH]n2c(=O)c1Cc1ccccc1,2.1
Cc1ccc(-c2ccc(C(=O)N(C)CC3(CO)CCOCC3)cc2)nn1,0.16
CCCN(CCC)CCNC(=O)Cn1cnc2sc(C)c(S(=O)(=O)N3CCN(c4ccccc4OC)CC3)c2c1=O,0.01
Cn1c(=O)n(CC(=O)O)c(=O)c2c1nc1n2CCCN1c1ccc(Cl)cc1,0.34
Cc1ccc(-c2cc3ncc(C(=O)c4cc(Cl)c(C)cc4O)cn3n2)cc1,-1.3
CCc1nn(CC(=O)N2CCCCC2)c(=O)c2cc3sccc3n12,-0.95
CCOc1ccc(S(=O)(=O)N(C(=O)c2ccncc2)c2ccc3oc(C)c(C(=O)OC)c3c2)cc1,-0.34
CCOC(=O)C1CCN(C(=O)CSc2c3c(nc4ccc(Cl)cc24)CCCC3)CC1,-2.8
Cc1ccc(C)c(C(=O)N2CCC(c3nc4c(nnn4Cc4ccccc4)c(=O)[nH]3)CC2)c1,1.2
COCCNc1cc(N2CCN(C3CCCCC3)CC2)c2noc3c2c1C(=O)c1ccccc1-3,-0.47
CCn1c(C(=O)Nc2ccc(C)cc2C)cc2sc(Cl)cc21,1.8
NC1CCN(C(=O)c2ccc(OC3CCN(Cc4ccccn4)CC3)cc2)CC1,-0.42
CC(C)(C)c1csc(CNC(=O)Nc2cccc(S(N)(=O)=O)c2)n1,0.27
Cc1cccn2c(=O)c3cc(C(=O)Nc4ccc(Cl)c(Cl)c4)sc3nc12,-0.38
CCOCCCNC(=O)C(c1ccc(OC)cc1)N(Cc1cccs1)C(=O)CNC(C)=O (stereo not drawn),-1.2
CC(=O)c1ccc(NC(=O)c2nc3nc(C)cc(C(F)F)n3n2)cc1,-1.7
CCOc1ccc(CCNC(=O)CSc2cc(=O)n(C)c3ccc(Cl)cc23)cc1OCC,-1.4
CCc1cccc(CC)c1NC(=O)CN(C)S(=O)(=O)c1ccc2c(c1)n(C)c(=O)c(=O)n2C,-0.45
O=C(c1ccccc1)N1CCCC(c2nc3c(nnn3Cc3ccc(F)cc3F)c(=O)[nH]2)C1 (stereo not drawn),-2.6

Some of the entries above, set out differently.
molecule: CCS(=O)(=O)c1oc(-c2ccc(F)cc2)nc1S(=O)(=O)c1ccccc1
- Bm FixLJ act = -4

molecule: CCN(CC)c1ccc(-n2nc3cc(C)c(NC(=O)c4ccccc4F)cc3n2)cc1
- Bm FixLJ act = -0.59

(further entries)
SMILES,Bm FixLJ act
CCn1cc(C(=O)NCc2ccccc2OC)c(=O)c2cc(S(=O)(=O)N3CCCCCC3)ccc21,0.56
Nc1ccc2oc(Cc3ccc(Cl)cc3)nc2c1,-1.2
Cc1nc(C2CCCN(C(=O)c3ccc4n[nH]nc4c3)C2)no1 (stereo not drawn),-0.62
COc1ccc(C)cc1Nc1nc(N)c2cc(OC)c(OC)cc2n1,-1.8
COc1ccc(-c2cc3nc(C4CCN(C(=O)OC(C)(C)C)CC4)c(C(=O)Nc4cc(Cl)cc(Cl)c4)cn3n2)cc1,-1.1
Cc1nc2scc(C)n2c(=O)c1S(=O)(=O)Nc1ccc(N2CCN(S(C)(=O)=O)CC2)cc1,-1.3
Cn1ccnc1C(O)C1CCN(Cc2ccc3cccc(Cl)c3n2)CC1 (stereo not drawn),-1.1
Cc1nc2c(-c3ccccc3)c(C)nn2c(C)c1CCC(=O)NCc1cccc(Cl)c1,-0.67
Clc1ccc2nc(Nc3ccccc3Cl)nc(-c3ccccc3)c2c1,-0.11
COc1ccccc1-c1cc(C(F)(F)F)nc(S(=O)(=O)CCCC(=O)Nc2cc(Br)ccc2O)n1,-0.85
CCCCC(CC)Cn1c(Oc2ccccc2)nc2c1c(=O)n(C)c(=O)n2C (stereo not drawn),-0.89
CCn1cc(C(=O)NCCc2ccc(OC)c(OC)c2)c(=O)c2cc(S(=O)(=O)N3CCCCCC3)ccc21,-0.09
CC(=O)Nc1ccc(C(=O)N(C)Cc2cccc3ncccc23)cc1C,-0.17
CN1CC(C(=O)N2CCC3(CC2)c2nc[nH]c2CCN3C(=O)C2CC2)CC1=O (stereo not drawn),-2.1
CN1CCC(=C2c3ccccc3C=Cc3ccccc32)CC1,0.59&0.24
COc1ccc(NC(=O)CCn2nc(-c3ccc(Cl)cc3)c3ccccc3c2=O)cc1,-1.8
COc1ccc(-c2cc(NCc3ccc(F)cc3)n3cnnc3n2)cc1,-3.1
CCN(CC)C(=O)Cn1c(=O)n(Cc2ccc(C(=O)NCc3ccccc3Cl)cc2)c(=O)c2ccccc21,-3.1
O=C(c1ccc(-n2ccnc2)cc1)N1CCCC(c2nc3ccccc3[nH]2)C1 (stereo not drawn),0.62
Cc1nn(C(C)(C)C)c(OC(=O)C(C)(C)C)c1Sc1ccccc1,-0.3
Cc1noc(C)c1CCC(=O)NC1C2CCC1CN(C(=O)C1CCCO1)C2 (stereo not drawn),-1.6
CCNC(=O)CC1C(=O)N(c2ccc(C)cc2)C(=O)N1CCOC (stereo not drawn),-1.6
COc1cccc(-n2c(C)nc3cc(C(=O)O)ccc32)c1,-1.3
CCN(CC)CCNC(=O)c1cc2c(=O)oc3ccc(C)cc3c2s1,-0.38
CN(C)C(=O)Oc1cc(OC(=O)N(C)C)cc(C(O)CNC(C)(C)C)c1 (stereo not drawn),-0.67
CCCC(=O)Nc1cccc(-c2nc3ncccc3o2)c1,0.17
CC(C)c1ccc(NC(=O)C(Cc2ccccc2)NS(=O)(=O)c2ccc3c(c2)oc(=O)n3C)cc1 (stereo not drawn),-1.4
COc1ccc(NC(=O)Cn2c(=O)n(Cc3ccccc3Cl)c(=O)c3cc(OC)c(OC)cc32)cc1,-1.2
Cc1cccn2c(=O)c(/C=C(\C#N)c3nc4ccccc4[nH]3)c(Oc3ccc(C(C)(C)C)cc3)nc12,0.79
O=C(c1ccc[nH]1)N1CCN(C(=O)c2cc(F)ccc2O)CC1,-0.13
O=C(O)Cn1nccc1C1CCCN(Cc2cccnc2)C1 (stereo not drawn),-1.2
COc1ccccc1-n1nc(-c2ccccc2)c2cnc3cc(C(F)(F)F)ccc3c21,-1
CCc1nn(CC(=O)N2CCC(C)CC2)c(=O)c2cc3occc3n12,-0.52
COc1cc(C(=O)N2CC(Cc3cc(C)no3)C(OC)C2)ccc1F (stereo not drawn),-0.94
Cc1ccc(CNC(=O)CCCn2c(=O)c3ccccc3n(CC(=O)Nc3ccc(C)cc3)c2=O)cc1,-0.32
COc1cccc(C2CN(C(=O)C3CCC3)CC2C(=O)O)c1OC (stereo not drawn),-0.12
CN(C)c1nc(-c2cccnc2)nc2c1CCN(C(=O)c1ccnc(N)c1)C2,-0.16
COc1ccc(NC(=O)C2CCN(c3ccc(Sc4ccc(C)cc4)nn3)CC2)cc1,-1.8
CCN(C(=O)CCNC(=O)Cn1cnc2ccccc2c1=O)c1cc(OC)ccc1OC,-0.06
NCCC(O)(P(=O)(O)O)P(=O)(O)O,-1.7
COCCc1nc(CNC(=O)N(C)Cc2cc(-c3cccnc3)no2)no1,1.3
CSCCC(O)C(=O)NCc1ccc(C(=O)N(C)C)o1 (stereo not drawn),-0.37
CCOc1ccc(NC(=O)Cn2c(=O)n(Cc3ccc(C(=O)NCc4ccc(C)cc4)cc3)c(=O)c3ccccc32)cc1,-0.45
COc1ccccc1N1CCN(c2c(CN3CCCC3)c(=O)oc3ccccc23)CC1,0.13
Cc1nc(C)c(C)c(N2CC(O)C(Cc3ccc4ccccc4n3)C2)n1 (stereo not drawn),-0.24
COc1ccccc1-c1noc(CSc2nnc(Cc3ccccc3)n2-c2ccc(C)c(C)c2)n1,-0.88
COc1ccc(CCNC(=O)CN2C(=O)COc3ccc(S(=O)(=O)N4CCCC4)cc32)c(OC)c1,-1.1
CN(C)[C@@H]1C(=O)C(C(N)=O)=C(O)[C@@]2(O)C(=O)C3=C(O)c4c(O)ccc(Cl)c4[C@@H](O)[C@H]3C[C@@H]12,-3
COc1ccc(-c2c(C#N)c(SCC(=O)Nc3ccc(Br)cc3)nc(C)c2C(=O)Nc2ccccc2)cc1,0.45
CN(Cc1sc2ccccc2c1Cl)C(=O)COCC(N)=O,0.31

(continued)
SMILES,Bm FixLJ act
CCOC(=O)C1CCN(c2cc3c(cc2NC(=O)c2ccc(Cl)cc2)n(C)c(=O)n3C)CC1,-1
CCOC(=O)c1ccc(NC(=O)c2cn(-c3ccccc3)nc2-c2ccc(OC)c(OC)c2)cc1,2.3
CCN(c1ccccc1)S(=O)(=O)c1ccc(NC(=O)c2nc(SC)ncc2Cl)cc1,-0.42
C[C@H](CS)C(=O)N1CCC[C@H]1C(=O)O,-0.31&-0.27
CCOC(=O)c1c(NC(C)=O)c2c3c(sc2n1Cc1nc(-c2cccc(C)c2)oc1C)CCCC3,-0.72
CCCCNC(=O)CCC(=O)NNc1nc2ccccc2c2nc(C)nn12,-1.1
Cc1ccc(CN2CCN(CC(=O)NCc3ccccc3Cl)C2=O)cc1,-1.6
CCc1ccc(N2CC(C)Cn3c2nc2c3c(=O)n(CC(=O)O)c(=O)n2C)cc1 (stereo not drawn),-1.1
Cc1cc(C)c2oc(-c3ccc(Cl)c(NC(=O)c4cccs4)c3)nc2c1,-0.68
Cc1ccc(NC(=O)c2nc(S(=O)(=O)Cc3ccc(F)cc3)ncc2Cl)cc1C,1.5
COc1cc(C2CC(=O)Nc3c2c(=O)[nH]c2ncnn32)ccc1O (stereo not drawn),0.03
CN1CCC2(CC1)CCN(c1nc(C(C)(C)C)nc3c1cnn3C)C2,0.06
CCc1ccc(NC(=O)CC2C(=O)NCCN2C(=O)c2ccccc2OC)cc1 (stereo not drawn),0.69
Cc1cc(C)c(Cn2c3ccccc3c3cnn(CC(=O)NCCC4=CCCCC4)c(=O)c32)c(C)c1,-1.9
CCOC(=O)Cn1c(=N)n(Cc2ccc(C(C)(C)C)cc2)c2ccccc21,1

Of the compounds above, these have bromine.
SMILES,Bm FixLJ act
CCCN(CCC)CCNC(=O)c1cc(-c2ccc(Br)s2)nc2ccccc12,-0.72
COc1ccccc1-c1cc(C(F)(F)F)nc(S(=O)(=O)CCCC(=O)Nc2cc(Br)ccc2O)n1,-0.85
COc1ccc(-c2c(C#N)c(SCC(=O)Nc3ccc(Br)cc3)nc(C)c2C(=O)Nc2ccccc2)cc1,0.45

Not all compounds are listed (hit frequency here may not be typical).
